Screening results as filed in PubChem.
VDR inh – Inhibitors of the vitamin D receptor (VDR): qHTS; AID 504847, 2011; 400,000 tested, 0.93% active; Potency, µM, inactives show max response, negative = inhibition, usual class: inhibitors; VDR-SRC2-3 peptide fluorescence polarization, 2 h; active means well fitted inhibition curve with a large enough effect; inconclusive means small, poorly fitted or top-dose-only effect, or another doubt; inactive means no such curve, though single readings can be large or run the other way; further: series mostly up to about 120 µM
Target sequence (P11473 whole entry, looked up): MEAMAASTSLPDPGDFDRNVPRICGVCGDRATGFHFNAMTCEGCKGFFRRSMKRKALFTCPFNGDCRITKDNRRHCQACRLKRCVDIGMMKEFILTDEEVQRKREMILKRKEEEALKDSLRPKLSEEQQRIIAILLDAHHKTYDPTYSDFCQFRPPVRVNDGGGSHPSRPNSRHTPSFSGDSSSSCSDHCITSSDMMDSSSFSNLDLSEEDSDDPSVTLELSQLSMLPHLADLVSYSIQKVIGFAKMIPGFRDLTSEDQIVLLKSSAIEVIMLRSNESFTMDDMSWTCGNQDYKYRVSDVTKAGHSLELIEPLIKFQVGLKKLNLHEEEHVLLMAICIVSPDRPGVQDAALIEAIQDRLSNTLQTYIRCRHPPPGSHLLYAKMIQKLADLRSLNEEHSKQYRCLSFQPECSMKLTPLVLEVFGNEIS
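Reagent solutions, kept cold and dark, are dispensed first; compounds are then pinned in at 23 nl, plates briefly spun, and incubated 2 h at ambient temperature. Inhibition of VDR–SRC2-3 peptide binding is read by fluorescence polarization.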
* = called active by the depositor; ? = inconclusive; & = joins results of further samples. On the % scale 0 is the no-effect control and ±100 the full control effect; potency means the concentration at half of the fitted maximal effect.

VDR inh | Molecule
3% | CCOc1ccc(OCC)c(NC(=O)CSc2nc3cccnc3n2C)c1
8% | Cc1cc(C(=O)O)ccc1-c1ccc(/C=N/n2cnnc2)o1
-3% | CCN(C(=O)COC(=O)COc1ccccc1Cl)c1c(N)n(Cc2ccccc2)c(=O)[nH]c1=O
-17% | O=C1NN(C(=O)Nc2ccc(Br)cc2)C(c2ccccc2)C1c1ccccc1 (centres undefined)
4% | CCn1c(SCC(=O)Nc2ccc3c(c2)OCO3)nc2ccccc21
15% | CCOC(=O)c1nnn(-c2nc(N(C)C)nc(N(C)C)n2)c1C
-8% | N#Cc1ccccc1NC(=O)C1CC(=O)N(c2ccc3c4c(cccc24)CC3)C1 (centres undefined)
-10% | CC1=CC(=C2C(=O)c3ccccc3C2=O)C=C(C)N1C
4% | O=C(O)Cc1ccc(NS(=O)(=O)c2ccccc2Cl)cc1
-15% | S=c1[nH]nc(-c2cccc(Cl)c2)n1/N=C/c1ccco1
16% | COc1ccc(C2/C(=C(/O)c3ccccc3)C(=O)C(=O)N2CCO)cc1 (centres undefined)
2% | NC(=O)NC[C@@H]1CC[C@@H](Cc2ccc(-c3ccccc3)cc2)O1
-6% | CC(C)(C)NC(=O)N1CCn2cccc2C1c1ccccc1F (centres undefined)
-18% | O=C(Nc1ccc2c(c1)OCO2)C(=O)c1c[nH]c2ccccc12
1% | Cc1cc(-c2ccc(C)c(S(=O)(=O)NC(C)Cc3ccco3)c2)on1 (centres undefined)
-30% | O=C(Cc1cccc(NC(=O)C2CCCN(C(=O)c3ccccc3)C2)c1)Nc1cccc(C(=O)N2CCOCC2)c1 (centres undefined)
-16% | C=C(C)C(=O)Nc1ccc(OC(F)(F)C(F)F)c(NC(=O)C(=C)C)c1
-1% | Cc1cccc(NC(=O)c2cccnc2)c1
-11% | COc1ccc2[nH]cc(CCN=C3SCC(=O)N3C)c2c1
-4% | O=C(Cc1ccccc1)NC(CSSCC(NC(=O)Cc1ccccc1)C(=O)O)C(=O)O (centres undefined)
-30% | COc1ccc(Nc2ccc(S(=O)(=O)N3CCCCC3)cc2[N+](=O)[O-])cc1
-8% | Cc1ccc(NC2CNC(=O)NC2=O)cc1C (centres undefined)
8% | CCCc1cc(=O)oc2cc(C)cc(OCC(=O)NCc3ccncc3)c12
-9% | COc1ccc2c(c1)OC13CCCCC1C2C(C(=O)c1ccccc1)C(=O)N3 (centres undefined)
2% | C=CCN(N=Nc1cccc([N+](=O)[O-])c1)c1cccc([N+](=O)[O-])c1
-3% | O=C(NCCCn1ccnc1)c1nn2c(C(F)(F)F)cc(-c3ccc(Br)cc3)nc2c1Cl
-7% | CC1CCc2nn(CC(=O)NCCN3CCOCC3)cc2C1 (centres undefined)
14% | Cc1c(NC(=O)COc2cccc(Cl)c2Cl)c(=O)n(-c2ccccc2)n1C
-10% | Cc1ccc(/C=N/NC(=O)CN2CCN(S(=O)(=O)c3ccc(Br)cc3)CC2)s1
9% | Cc1ccc(C2NC(=O)c3c(sc(C)c3C)N2)c(O)c1 (centres undefined)

Rewritten with each value named: 4 of the compounds above.
CC1=CC(=C2C(=O)c3ccccc3C2=O)C=C(C)N1C
- VDR inh: -10%
COc1ccc(Nc2ccc(S(=O)(=O)N3CCCCC3)cc2[N+](=O)[O-])cc1
- VDR inh: -30%
O=C(Cc1cccc(NC(=O)C2CCCN(C(=O)c3ccccc3)C2)c1)Nc1cccc(C(=O)N2CCOCC2)c1 (centres undefined)
- VDR inh: -30%
Cc1cc(-c2ccc(C)c(S(=O)(=O)NC(C)Cc3ccco3)c2)on1 (centres undefined)
- VDR inh: 1%

Going on with the list.
VDR inh | Molecule
-6% | O=C(O)CNS(=O)(=O)c1cccc(Cl)c1
3% | O=C(NCCc1c[nH]c2ccccc12)Nc1cccc2ccccc12
14% | CC1=C(C(=O)OC2CCCC(C)C2)C(c2ccccc2)NC(=O)N1 (centres undefined)
12% | CC(C)N(C(=O)NC(=O)NCC1CCCO1)S(C)(=O)=O (centres undefined)
-11% | COc1ccc(OCCCC(=O)Nc2nnc(C3CCCO3)s2)cc1 (centres undefined)
1% | COc1cccc(-n2c(CN3CCN(c4ccc(C)cc4)C(C)C3)nc3ccc([N+](=O)[O-])cc3c2=O)c1 (centres undefined)
-4% | CC(=O)c1ccc(NC(=O)CSc2nc(-c3cccc(F)c3)nc3c2c(=O)n(C)c(=O)n3C)cc1
0% | CC1=NN(c2cccc([N+](=O)[O-])c2)C(=O)C1
-1% | Cc1ccc(-c2nnc(CN3CCCCC3C)o2)cc1 (centres undefined)
-11% | Cc1csc(N2CCCC2c2nc3cc(Cl)c(N4CCCCC4)cc3n2CCCO)n1 (centres undefined)
-13% | C#CC(C)(C)NC(=O)CSc1nc2c(c(=O)n(C)c(=O)n2C)n1CCCC
6% | CCN(CCNC(=O)CS(=O)(=O)Cc1nc(-c2cccc(OC)c2)oc1C)c1ccccc1
10% | COCCNc1nc(-c2cc(C)n(CCc3ccc(OC)cc3)c2C)cs1
16% | COc1ccc(NC(=O)CC2C(=O)N(c3ccccc3)C(=O)N2Cc2cccnc2)cc1 (centres undefined)
10% | COc1cccc(C(=O)Nc2ccc(N3CCN(C(=O)c4ccco4)CC3)cc2)c1
6% | CNS(=O)(=O)c1cccc(C(=O)OCC(=O)NCc2ccccc2)c1
-4% | CC(C)c1ccc(Nc2nnc(SC3CCOC3=O)s2)cc1 (centres undefined)
7% | Cc1ccc(C)n1-c1nnc(N2CCCC(C(=O)NCc3ccc(F)cc3)C2)s1 (centres undefined)
3% | COc1ccccc1C(=O)Nc1ccc(C(=O)OCc2cc(=O)n3c4c(sc3n2)CCCC4)cc1
3% | CCC(C)Sc1ccc([C@H]2N[C@@](C)(C(=O)OC)[C@H]3C(=O)N(CC)C(=O)[C@@H]23)cc1OC (some centres undefined)
-8% | Cn1c(=O)[nH]c(=O)c2c1nc(NCCN)n2CCOc1ccccc1
-3% | CCC(=O)Nc1ccc(NC(=O)CSc2nc3cc4c(cc3cc2C)CCC4)cc1
5% | CCc1ccc(NC(=O)Cn2c(=O)oc3cc(S(=O)(=O)NCc4ccccc4)ccc32)cc1
-4% | COc1cccc(CNc2ncnc3onc(-c4ccc(F)cc4)c23)c1
13% | Cc1nc2nc(SCC(=O)NCCc3ccc(Cl)cc3)nn2c(C)c1Cc1c(F)cccc1Cl
-7% | COCCn1nnnc1SCC(=O)Nc1ccc2c(c1)OCO2
3% | O=C(Nc1ccccc1)c1ccc(NCCc2ccccc2)c([N+](=O)[O-])c1
-4% | CC(=O)C1=C(c2ccccc2)NC(=O)NC1c1ccccc1OCC#N (centres undefined)
13% | COc1cc(S(=O)(=O)N2CCCCCC2)ccc1Cl
-2% | Cc1ccc(-n2c(SCC(=O)Nc3cc(C)on3)nc3c([nH]c4ccccc43)c2=O)cc1

Filtered by structure, the entries above containing an aryl thioether with sulfur outside any ring (10)
VDR inh | Molecule
3% | CCOc1ccc(OCC)c(NC(=O)CSc2nc3cccnc3n2C)c1
4% | CCn1c(SCC(=O)Nc2ccc3c(c2)OCO3)nc2ccccc21
-4% | CC(=O)c1ccc(NC(=O)CSc2nc(-c3cccc(F)c3)nc3c2c(=O)n(C)c(=O)n3C)cc1
-13% | C#CC(C)(C)NC(=O)CSc1nc2c(c(=O)n(C)c(=O)n2C)n1CCCC
-4% | CC(C)c1ccc(Nc2nnc(SC3CCOC3=O)s2)cc1 (centres undefined)
3% | CCC(C)Sc1ccc([C@H]2N[C@@](C)(C(=O)OC)[C@H]3C(=O)N(CC)C(=O)[C@@H]23)cc1OC (some centres undefined)
-3% | CCC(=O)Nc1ccc(NC(=O)CSc2nc3cc4c(cc3cc2C)CCC4)cc1
13% | Cc1nc2nc(SCC(=O)NCCc3ccc(Cl)cc3)nn2c(C)c1Cc1c(F)cccc1Cl
-7% | COCCn1nnnc1SCC(=O)Nc1ccc2c(c1)OCO2
-2% | Cc1ccc(-n2c(SCC(=O)Nc3cc(C)on3)nc3c([nH]c4ccccc43)c2=O)cc1

Later entries:
VDR inh | Molecule
0% | N[C@@H](Cn1cc(F)c(=O)[nH]c1=O)C(=O)O
11% | Cc1c(NC(=O)C(C)Oc2ccccc2F)c(=O)n(-c2ccccc2)n1C (centres undefined)
-17% | O=C(Nc1nncs1)c1cccc(S(=O)(=O)N2CCCC2)c1
3% | CCOC(=O)N1CCN(C(=O)C2CCC(CNS(=O)(=O)c3ccccc3)CC2)CC1 (centres undefined)
4% | COc1ccc(OC)c(/C=N/NC(=O)CC2C(=O)NN=C2C)c1 (centres undefined)
0% | NC(C(=O)O)C(c1ccccc1)C(F)F (centres undefined)
4% | CCC(C)NC(=O)COc1ccc(Br)c(C)c1 (centres undefined)
-9% | COCCCn1c(=O)c2sccc2n(Cc2cccc(F)c2)c1=O
1% | Clc1ccccc1-c1nnc(-c2ccccc2CNc2ccc(Br)cc2)o1
-7% | COC(=O)CSc1ccc2c(N)c(C(=O)OC)sc2c1
-13% | CCCCOc1ccc(S(=O)(=O)N2CCN(C)CC2)cc1
-23% | CC1Sc2ccc(S(=O)(=O)CCC(=O)Nc3cc(F)ccc3F)cc2NC1=O (centres undefined)
-6% | CC(=O)c1cccc(NC(=O)c2ccc(S(=O)(=O)N3CCCC3)cc2)c1
? | CC(C)CC(=O)NC(NC(=S)Nc1ccccc1)C(Cl)(Cl)Cl (centres undefined)
12% | CCOc1ccc(/C=C(/NC(=O)c2ccccc2Cl)C(=O)O)cc1
7% | C=CCn1c(SCC(=O)NCc2cccs2)nnc1C1CCCCC1
-9% | CCOc1ccc(/C=C(\C(=O)O)c2ccc(S(=O)(=O)N3CCOCC3)s2)cc1OC
6% | CC(C)CCNC(=O)C1CCN(C(=O)c2cc3sccc3n2Cc2ccc(Cl)cc2)CC1
-5% | COc1ccc(CC(=O)Nc2cc(=O)n(C)c(=O)n2C)cc1
7% | COc1ccc(-c2c(C)c3ccc(O)c(CN4CCN(CCO)CC4)c3oc2=O)cc1OC
-13% | O=C(NCc1ccccc1Cl)c1cc2c(s1)-c1ccccc1SC2
4% | CCc1nn(CC(=O)N2CCN(c3ccc(OC)cc3)CC2)c(=O)c2cc3sccc3n12
-12% | CC(=O)c1cc(C(=O)N2CCCC(C(=O)c3ccc(Cl)cc3)C2)cs1 (centres undefined)
7% | CCOc1ccc(CCNC(=O)COC(=O)c2ccc(Cl)nc2)cc1OCC
-5% | COc1ccccc1/C=C/C(=O)Nc1cccc(C(C)=O)c1
-5% | COc1ccc(CCN2C(=O)C3C4C=CC(C5CC45)C3C2=O)cc1OC (centres undefined)
-4% | Cc1ccc(NC(=O)c2ccc(CNS(=O)(=O)c3cccc(C(F)(F)F)c3)cc2)cc1
-25% | Cc1cccc(C)c1NC(=O)CN(C)C(=O)c1ccc2nc[nH]c2c1
-6% | COc1cc(Br)cc2cc(C(=O)N3CCN(c4ccccn4)CC3)c(=O)oc12
8% | Cc1ccc(C)c(S(=O)(=O)NCC(c2ccc(N(C)C)cc2)N2CCOCC2)c1 (centres undefined)
-17% | CC1(CCc2ccc3c(c2)OCO3)NCCc2c1[nH]c1ccccc21 (centres undefined)
-12% | O=c1[nH]ncc(N2CCCCCC2)c1Cl
-5% | Cc1ccc(NC2CC(C)NC(=S)N2)cc1 (centres undefined)
-5% | CC(C)Cn1c(O)c(/C=C2\C=NN=C2c2ccccc2)sc1=S
0% | CCn1c(SCC(=O)NC2CCCCC2)nc2ccccc2c1=O
11% | O=C1CCCC2=C1C1(CCCC1)N=C(Nc1nc3ccccc3s1)N2
4% | CCN1CCN(c2cc(C)c3cc(NC(=O)c4cc(Br)ccc4Cl)ccc3n2)CC1
? | COc1ccc(C2=NS(=O)(=O)N(C)C(C(=O)Nc3ccc4c(c3)OCO4)=C2)cc1OC
10% | CCOC(=O)Cn1c(=O)c2c(nc3n2CCN3Cc2ccccc2)n(C)c1=O
-7% | COc1ccc2c(c1)C1(C)CC(C)(C)N2C(=O)N1c1ccccc1 (centres undefined)
23% | CCOc1ccccc1OC(=O)c1ccco1
-3% | CCOc1nc(N=C(N)N)nc2c(C)cccc12
16% | Cc1ccc2oc(-c3cccc(NC(=O)c4cc(-n5cnnc5)ccc4Cl)c3)nc2c1
5% | CC(O)(CS(=O)(=O)Cc1ccccc1)C(=O)Nc1cccc(C(F)(F)F)c1 (centres undefined)
25% | Cc1ccc(NC(=O)c2c(C(F)(F)F)nn(C)c2SCc2ccc(Cl)cc2)cc1C
-24% | COc1ccc(NC(=O)C2CCN(S(C)(=O)=O)CC2)cc1OC
19% | CCc1cc(-c2n[nH]c(C)c2-c2ccccc2Cl)c(O)cc1OC
-11% | O=C(CSc1nn(-c2ccc(Cl)cc2)c(=S)s1)NCC1CCCO1 (centres undefined)
1%&-5% | COc1c(O)cc2oc(-c3ccc(O)cc3)cc(=O)c2c1O
-9% | O=C(c1ccc(Cl)s1)N1CCc2ccccc21
0% | Cc1ccc(CS(=O)(=O)Cc2ccc(C(=O)NCCc3ccccc3)o2)cc1
0% | CC(=O)N/C(=C\c1cccc([N+](=O)[O-])c1)C(=O)NC(C)C
-8% | COc1ccc2cc(S(=O)(=O)c3ccccc3F)c(=O)oc2c1
-14% | O=C(COC(=O)c1ccc([N+](=O)[O-])o1)Nc1ncc(Cl)cc1Cl
7% | COc1ccc2nc(N(Cc3cccnc3)C(=O)C3COc4ccccc4O3)sc2c1 (centres undefined)
-2% | NC(=O)CN1CCCC1c1ccc2c(c1)OCCO2 (centres undefined)
-4% | COc1ccc(-n2c(C)cc(C(=O)COC(=O)Cc3n[nH]c(=O)c4ccccc34)c2C)cc1
-5% | Cc1nc(C(=O)NC2CC2)sc1C1(C)CC(c2ccccc2)=NO1 (centres undefined)
-5% | FC(F)(F)c1ccccc1-c1nc(-c2ccncc2)no1
-10% | O=C(c1ccc(N2CCOCC2)nc1)N1CCOCC1

This is a subset; rates above refer to the full screens.
